Source: PubChem (National Center for Advancing Translational Sciences (NCATS))
hNpr1 antagonist: Natriuretic polypeptide receptor (hNpr1) antagonism - Primary qHTS; Atrial natriuretic peptide receptor 1 (Homo sapiens), P16066; HEK293 hNpr1 GloSensor cGMP, ANP-stimulated luminescence; Potency, µM (titrated, usually from 46.3 µM), for inactives: at the highest dose activity change, negative = inhibition, most hits filed as inhibitors; 76,000 tested, 1.6% active; active = well fitted inhibition curve with a large enough effect; inconclusive = small, poorly fitted or top-dose-only effect; inactive = no such curve, though single readings can be large or run the other way;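 further: nearly all actives have a fitted effect of over 60% in size; nearly all hits also lower the signal before the agonist is added; a reference antagonist and vehicle were the controls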
Target sequence (P16066 whole entry, looked up): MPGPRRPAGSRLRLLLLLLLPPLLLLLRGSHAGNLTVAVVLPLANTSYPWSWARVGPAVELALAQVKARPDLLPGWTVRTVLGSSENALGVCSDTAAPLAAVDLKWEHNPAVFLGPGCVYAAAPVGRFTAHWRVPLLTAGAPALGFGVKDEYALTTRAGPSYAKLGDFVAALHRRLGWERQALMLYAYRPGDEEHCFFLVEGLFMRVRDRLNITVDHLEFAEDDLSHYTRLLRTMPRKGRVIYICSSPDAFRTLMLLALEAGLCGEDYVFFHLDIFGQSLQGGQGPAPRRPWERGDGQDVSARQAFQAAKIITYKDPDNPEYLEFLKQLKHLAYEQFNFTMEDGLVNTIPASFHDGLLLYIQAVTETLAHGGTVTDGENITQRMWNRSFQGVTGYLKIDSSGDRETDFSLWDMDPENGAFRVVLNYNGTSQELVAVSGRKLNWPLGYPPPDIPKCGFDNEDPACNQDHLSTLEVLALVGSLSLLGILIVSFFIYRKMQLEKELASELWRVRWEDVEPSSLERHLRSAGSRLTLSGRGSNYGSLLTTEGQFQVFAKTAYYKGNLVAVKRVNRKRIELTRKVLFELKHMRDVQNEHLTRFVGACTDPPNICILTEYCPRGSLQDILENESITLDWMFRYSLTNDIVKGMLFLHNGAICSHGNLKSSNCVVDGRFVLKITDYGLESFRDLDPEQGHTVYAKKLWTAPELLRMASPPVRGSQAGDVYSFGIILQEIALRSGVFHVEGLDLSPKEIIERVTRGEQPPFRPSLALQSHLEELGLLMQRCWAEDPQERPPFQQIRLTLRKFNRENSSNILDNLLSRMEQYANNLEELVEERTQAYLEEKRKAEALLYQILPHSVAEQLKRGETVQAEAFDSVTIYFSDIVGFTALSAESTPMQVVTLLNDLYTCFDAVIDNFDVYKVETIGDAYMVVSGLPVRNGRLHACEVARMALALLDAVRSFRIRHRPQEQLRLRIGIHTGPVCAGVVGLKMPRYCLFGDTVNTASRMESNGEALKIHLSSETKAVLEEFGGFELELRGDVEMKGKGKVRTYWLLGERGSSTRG
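Compound pre-incubated 30 min at room temperature on GloSensor-loaded HEK293 cells stably carrying hNpr1 and the pGS-40F cGMP biosensor. Stimulation uses hNppA at 0.1 nM final; luminescence is taken at baseline and 20 min post-agonist.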
Active calls of the source: *; ? = inconclusive; [ ] = another dose, or the depositor's remark. On the % scale 0 is the no-effect control and ±100 the full control effect; potency means the concentration at half of the fitted maximal effect. Only part of the results is shown (hit frequency here may not be typical).

SMILES	hNpr1 antagonist
CCNC(=O)c1cccnc1OC1CCN(C(=O)c2ccccc2Cl)C1 (centres undefined)	-4%
CCOc1ccccc1CN1CCC2(CCN(C(=O)C(C)(C)C)CC2)Oc2ccccc21	5%
COCCC1(C(=O)O)CCCN(Cc2ccc3c(c2)CC(C)(C)O3)C1 (centres undefined)	-6%
COc1ccc(NC(=O)N2CC(C(=O)N(C)C)C3(CCOCC3)C2)c(C)c1 (centres undefined)	1%
COCCn1c(C)nnc1-c1cc(-c2ccnc(OC)c2)ccn1	2%[70.6 µM]
COc1cccc(C(=O)N2C(C(=O)NCC(C)C)COC23CCN(C(=O)c2cccc(F)c2)CC3)c1 (centres undefined)	0%
CC(C)c1ccc(-n2cc(CN3CCCC(O)(CN(C)C)C3)cn2)cc1 (centres undefined)	3%
CCCc1nc(NCc2ccc(-c3noc(C)n3)cc2)c2cnn(C)c2n1	11µM*
O=C(c1cccc(O)c1)N1CCc2c(n(Cc3cccnc3)n(-c3ccccc3)c2=O)C1	2%[70.6 µM]
CCCNC(=O)c1coc(COc2ccc3c(c2)C(c2cccc(C)c2)N(C(=O)C2CC2)CC3)n1 (centres undefined)	?
Cc1cnc(C2CC2)n1C1CCCN(C(=O)C2CC2)C1 (centres undefined)	-6%
O=C(NCc1ccc(Cl)nc1)c1cc2cccnn2n1	-6%[70.6 µM]
COCCn1c2c(c(=O)n1-c1ccccc1)CCN(C(=O)c1cccc(C#N)c1)C2	-1%[70.6 µM]
CCCC(=O)N1CCC2(CC1)NCCc1c2[nH]c2ccc(OC)cc12	5%
CC(C)NC(=O)N1CCC(c2nc(C3CCOCC3)no2)CC1	3%
COCC(=O)NC1CCC12CCN(C(=O)Nc1ccccc1F)CC2 (centres undefined)	-14%
COCC(=O)N[C@@H]1CN(Cc2c(F)cccc2Cl)C[C@H]1CO	0%
COc1cc(OC)cc(C(=O)N2CC(c3noc(-c4ccccc4)n3)C2)c1	-16%
CC1=C[C@@H](CNC(=O)C2CC2)[C@H](C(C)C)C[C@H]1CC(=O)Nc1ccccn1	-7%[70.6 µM]
COc1cc(NC2=N[C@H]3[C@@H](O)[C@H](O)C[C@H](C(=O)N(C)Cc4ccccc4)[C@H]3S2)cc(OC)c1	-18%
O=C(O)c1ccc(CN2CCC[C@H]2c2nc(-c3ccc(-c4cncnc4)nc3)no2)cc1	-1%[70.6 µM]
O=C(N[C@H]1C[C@@H]2OCC[C@H]12)c1cccnc1SCCc1ccccc1	-2%
COc1cccc(CC(=O)N2CCC(n3cc(-c4nc(-c5ccccc5)no4)nn3)CC2)c1	10µM*
COc1ccc(OCC(=O)Nc2ncc(-c3ccc(OC)nc3)c3c2OCC3)cc1	5%[70.6 µM]
Cc1cc(C(=O)N2C[C@@H](C)[C@H](c3nc(-c4ccccc4)no3)C2)n[nH]1	-11%

Later entries
SMILES	hNpr1 antagonist
Cc1ccc(NC(=O)Cn2nc3n(c2=O)CCCCC3)cc1Cl	4%
COc1cccc(COC2CN(C(=O)CCc3cccs3)CC(=O)N(Cc3ccccn3)C2)c1 (centres undefined)	2%
COCCC(=O)N1CCC(C2CCN(S(C)(=O)=O)CC2)C1 (centres undefined)	-3%
Nc1ccc2ncnc(N3CCCC3)c2c1	-9%
Fc1ccc2nc(C3CCN(Cc4nc(COc5ccccc5)no4)CC3)[nH]c2c1	4%
Cc1ncsc1CN1CC[C@@H]2C(=O)NCCCCCCN(Cc3ccncc3)[C@@H]2C1	-9%
CCOC(=O)C1=C(C)N=C2SC=C(CC(=O)NC3CC3)N2C1c1cccc(OC)c1OC (centres undefined)	-11%
COc1cccc(Cn2c(=O)c3ccnn3c3ccc(C(=O)NCCCN(C)C)cc32)c1	-2%
COc1cc(Cl)ccc1C(=O)N1CC2CC(C1)[C@H]1CCCC(=O)N1C2 (some centres undefined)	-9%
O=C(CCCc1ccccc1)Nc1ccnn1C1CCN(C(=O)CCN2CCCC2=O)CC1	10%
Clc1ccc(-c2cnc([C@@H]3COCCN3C3CCCCC3)[nH]2)s1	-29%[70.6 µM]
Cc1cc(Cl)ccc1S(=O)(=O)N1C[C@@H](F)C[C@H]1C(=O)N1CCCCC1	3%
O=C1CCN(Cc2ccc(F)cc2F)CCCC(c2nc(-c3cnccn3)no2)CCN1 (centres undefined)	2%
O=c1c2nc(-c3cccc(O)c3)ccc2ncn1-c1ccccc1	3%[70.6 µM]
CCc1noc(-c2cn(C3CCCN(C(=O)COc4ccc(F)cc4)C3)nn2)n1 (centres undefined)	2%
Oc1ccccc1CN1CCOC[C@H]1c1ncc(-c2ccc(F)cc2)[nH]1	-24%[70.6 µM]
COCCCN1C(=O)CC(CC(=O)N2CCC(C(O)c3ccccc3)CC2)(c2ccccc2C)C1=O (centres undefined)	-2%
O=S(=O)(c1ccccc1)N1CCCC(Cn2c(C3CC3)nc3cccnc32)C1 (centres undefined)	-3%
CN1C(=O)CO[C@H](c2ccc(NC(=O)C(C)(C)C)cc2)[C@H]1CO	0%[70.6 µM]
CN(Cc1nc(-c2cccnc2)no1)C(=O)CC1COCCN1 (centres undefined)	2%
CCc1cccc(NC(=O)c2ccc3c(c2)N(C)C2CCCN2C3=O)c1 (centres undefined)	0%
CC(C)(C)n1nnnc1C1CC2(CCOCC2)C(=O)N1CCc1nc2ccccc2[nH]1 (centres undefined)	-3%
O=C(NCc1ccccc1F)c1ccc2c(c1)CN(Cc1ccsc1)CCO2	-16%
Cc1cc(S(=O)(=O)N2CCCC2c2noc(COc3ccc(F)cc3)n2)ccc1F (centres undefined)	?
CC1(CCCCc2ccccc2)COc2ccc(C(=O)NC3CCC(O)CC3)cc2N1 (centres undefined)	-5%[70.6 µM]

The list continues.
SMILES	hNpr1 antagonist
Cc1ccc(S(=O)(=O)NC[C@H]2O[C@@H](CO)[C@@H](O)[C@H]2N2CCN(c3ncccn3)CC2)cc1	-8%
CCOC(=O)c1cc(C)n(CC(=O)N2CCCOCCNC(=O)CC2)c1C	3%
COc1ccc(CN2CCc3nc(N4CCOCC4)[nH]c(=O)c3CC2)cc1Br	1%
NC(=O)c1cccc2[nH]c([C@H]3CCN(Cc4cccc(Cl)c4)C3)nc12	?
CCc1ccc(C(=O)N2CCN(C(=O)c3nnn4c3COC(c3ccc(Cl)cc3)C4)CC2)cc1 (centres undefined)	-2%
CCCNC(=O)C1COC2(CCN(C(=O)Cc3ccccc3)CC2)N1C(=O)c1ccc(OC)cc1 (centres undefined)	4%
CN(Cc1ccc(F)cc1)C(=O)C1CCCC1	3%[70.6 µM]
COCC(=O)N[C@H]1CC(C)(C)[C@@H]2C[C@@](C)(O)CC[C@]12CCC(=O)N1CCN(c2ccccc2OC)CC1	9%
CS(=O)(=O)N1C[C@H]2CCN(C(=O)c3cc(F)ccc3Cl)C[C@H]21	11%
CCn1nccc1C(=O)N1CCCC1c1cc(C)no1 (centres undefined)	0%
CCN1CC2(CCN(C(=O)Cc3c(C)[nH]c4c(F)cccc34)CC2)OC1=O	-3%
C[C@]1(CO)C2CC[C@@H](O)[C@@H](CC(=O)N3CCC[C@H]3CO)[C@]2(C)CC[C@H]1OC(=O)Nc1cccc(F)c1 (some centres undefined)	4%
Cc1ccc(-c2ncc(NC(=O)c3cc(F)ccc3F)cn2)cc1	-12%
CCc1nc2c(=O)n(CC(=O)N(CC)Cc3ccccc3)nc(C)c2s1	-8%
COCC1CN(C(C)=O)CC12CCN(Cc1cccc(C#N)c1)CC2 (centres undefined)	4%
COc1ccc(-c2noc([C@@H]3CCCN3C(=O)c3ccc(OC)c(OC)c3)n2)cc1	-2%
O=C(NCc1ccc(F)cc1Cl)c1noc(-c2ccc3c(c2)OCO3)n1	-5%
COc1ccccc1-c1cc(C(=O)NCc2c(C)cc(C)[nH]c2=O)c2c(c1)ncn2C	5%[70.6 µM]
COc1ccc(CCC(=O)N2CCCCCCNC(=O)[C@@H]3CCCC[C@@H]32)cc1	3%
Cn1cc(CN2CCCN(C(=O)c3ccco3)CC2)c(-c2ccc(C3CCCCC3)cc2)n1	1%
CNC(=O)[C@@H]1C[C@@H](O)CN1C1CCN(C(=O)c2cc3ccccc3[nH]2)CC1	0%
Cc1ccc(NC(=O)c2cnc(-c3ccccc3)nc2-c2ccncc2)cc1C	?
O=C(Nc1ccc(Cl)cc1F)N1CCc2nc3cc[nH]n3c(=O)c2C1	-14%
O=C(c1ccccc1OC(F)(F)F)N1CCC2(CC1)CC(O)CCO2 (centres undefined)	4%
O=C(NC1CCCC1)N[C@@H]1C[C@H](Cn2cc(C3CC3)nn2)[C@@H](O)[C@H]1O	5%[70.6 µM]

Ordered by the number under hNpr1 antagonist (descending): 3 from the list above
SMILES	hNpr1 antagonist
Cc1cnc(C2CC2)n1C1CCCN(C(=O)C2CC2)C1 (centres undefined)	-6%
CCOC(=O)C1=C(C)N=C2SC=C(CC(=O)NC3CC3)N2C1c1cccc(OC)c1OC (centres undefined)	-11%
O=C(NCc1ccccc1F)c1ccc2c(c1)CN(Cc1ccsc1)CCO2	-16%

The main list resumes with the two entries that preceded the break.
SMILES	hNpr1 antagonist
O=C(c1ccccc1OC(F)(F)F)N1CCC2(CC1)CC(O)CCO2 (centres undefined)	4%
O=C(NC1CCCC1)N[C@@H]1C[C@H](Cn2cc(C3CC3)nn2)[C@@H](O)[C@H]1O	5%[70.6 µM]
CCCn1c(C)cnc1CC1CCN(C(=O)c2ccc(OC)cc2OC)CC1	-2%
CN1Cc2ncnc(NCCc3ccccc3F)c2CN(c2ccccc2)C1=O	7%
CC(C)(C)c1nnc([C@H]2CCN(Cc3ccco3)C2)o1	-6%[70.6 µM]
Cc1cccc(-n2nc(-c3c(C)nc4scc(CC(=O)NCc5ccco5)n4c3=O)cc2C)c1C	-7%
CC(C)NC(=O)N[C@H]1C[C@@H](c2nc(-c3ccncc3)no2)N(C)C1	2%[70.6 µM]
Cc1noc(C)c1-c1cc2c(c(-c3ccccc3F)c1)C(=O)N(C)C2	?
COC(=O)[C@@H]1C[C@H](NC(=O)c2c(Cl)cccc2Cl)CN1C	3%
O=C(NC1CCN(c2nc3ncccc3o2)CC1)c1ccccc1F	5%
Cc1cnc(C2CCN(S(=O)(=O)c3ccc4c(c3)CCC4)C2)n1C(C)C (centres undefined)	-4%
CCNC(=O)c1cccnc1OC1CCN(C(=O)C2CCC2)C1 (centres undefined)	5%
Cc1ncsc1C1N(C2CCN(C(=O)C3CC3)CC2)C(=O)C12CCCC2 (centres undefined)	6%
O=C(c1nc2sccn2c1Br)N1CCOCC1	-1%[70.6 µM]
CNC(=O)C1CCCN(Cc2nc(-c3cccc(Oc4ccccc4)c3)oc2C)C1 (centres undefined)	5%
Cc1ccc(C(=O)NCc2nnc3cc(-c4nc(C5CC5)no4)ccn23)cc1F	3%
COc1ccc(OCC2(C)COc3ccc(C(=O)Nc4cccnc4)cc3N2)cc1 (centres undefined)	25µM*
Cc1ccc([S+](=O)([O-])N2CCC(N3CCCCCC3=O)CC2)cc1	12%
COc1ccc(CN2CCCCCNC(=O)CC2c2ccccc2)cc1Cc1c(C)noc1C (centres undefined)	-11%
Cc1cnc(C2CCN(S(=O)(=O)c3cn(C)cn3)C2)n1C(C)C (centres undefined)	-1%
COc1ccc(CN2C(=O)COC[C@@H]2[C@H](O)c2ccc(NC(=O)c3ccc(C(C)(C)C)cc3)cc2)cc1	3%
CCN(CCc1nc2ccc(F)cc2[nH]1)C(=O)c1cc2n(n1)CCN(C)C2	1%
CCC(=O)NC1CCN(c2cnn(C)c(=O)c2)CC1	5%
CCn1nc(CC(C)C)cc1C(=O)N1CCC2(CC1)CNC(=O)O2	0%
O=C([C@@H]1C[C@H](F)CN1C(=O)c1ccccc1F)N1CCCCC1	-11%
CC1=C[C@@H](CNC(=O)Cn2cnnn2)[C@H](C(C)C)C[C@H]1Cc1nc2ccccc2[nH]1	-26%[70.6 µM]
CNC(=O)c1cccc(-c2cnc(Nc3cccc(F)c3)c3c2CCO3)c1	-5%[70.6 µM]

Individual results from the list.
For hNpr1 antagonist, `CC(C)(C)c1nnc([C@H]2CCN(Cc3ccco3)C2)o1` has -6%[70.6 µM]
For hNpr1 antagonist, `CCn1nc(CC(C)C)cc1C(=O)N1CCC2(CC1)CNC(=O)O2` has 0%
For hNpr1 antagonist, `CCC(=O)NC1CCN(c2cnn(C)c(=O)c2)CC1` has 5%
For hNpr1 antagonist, `CCNC(=O)c1cccnc1OC1CCN(C(=O)C2CCC2)C1` (centres undefined) has 5%
For hNpr1 antagonist, `CNC(=O)C1CCCN(Cc2nc(-c3cccc(Oc4ccccc4)c3)oc2C)C1` (centres undefined) has 5%

Following part:
SMILES	hNpr1 antagonist
O=C1CCN(C(=O)CCC2CCCC2)CCCC(c2nc(-c3cccnc3)no2)CCN1 (centres undefined)	-6%
COc1ccc(C(=O)NC[C@H]2O[C@@H](CC(=O)N(C)Cc3ccccc3)[C@H](O)[C@@H]2O)cc1	1%[70.6 µM]
CN(C)C(=O)C1CN(C(=O)Nc2ccccc2Cl)CC12CCOCC2 (centres undefined)	-8%
COc1cccc(C(=O)N2CCCC(Cc3nc(C4CCOCC4)no3)C2)c1 (centres undefined)	2%
CC1=C(C(=O)Nc2ccccc2)C(c2ccc(F)cc2)N2C(CC(=O)NCC(C)C)=CSC2=N1 (centres undefined)	?
COc1cccc(CN2C(=O)OC3(CCN(C(=O)C(C)C)CC3)C2(C)c2cccnc2)c1 (centres undefined)	0%[70.6 µM]
O=C(NC1CCCCC1)c1ccc(N2CC3CC(C2)[C@H]2CCCC(=O)N2C3)nc1 (some centres undefined)	4%
O=C([C@H]1C[C@H](Oc2ccccc2)CN1C(=O)Cc1ccccc1F)N1CCOCC1	0%
CN(C)C[C@H]1C[C@@H](CO)CN(C(=O)COc2ccc(F)c(Cl)c2)C1	3%
O=C(NCC1CCCO1)C1CCN(C2CCN(C(=O)CCC3CCCCC3)CC2)CC1 (centres undefined)	-1%
